Assay outcomes (PubChem)
HNF4A DNA FP = change in binding of human HNF4A to DNA, primary screen, biochemical, fluorescence polarization, FITC-DNA; Hepatocyte nuclear factor 4-alpha (Homo sapiens), P41235; 1 h; activity change, % at 10 µM; actives 0.3% (n = 360,000); AID 1224865, 2016; in the data active = activity change above about 30%, passing the limit was not always enough;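 also: controls were the assay level and a saturating level of protein; the project sought stronger binding though the title names inhibitors; some compounds called inactive have numbers as strong as hits; positive values seem to mean higher polarization but the record does not say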
FGF22 binding = binders of human FGF22 protein, primary screen, FGF22 synaptogenesis inhibitor project, biophysical, thermal shift, single point; recombinant FGF22 thermal shift, SYPRO orange fluorescence; percent of sucrose octasulfate shift, DMSO zero; calls only at 9.99 µM; actives 1.5% (n = 340,000); AID 651658, 2012;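 active = melting point raised past a set limit in the mean and every replicate; inconclusive = no clear call; three in four hits are not shown here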
Beta2AR agonist = beta2AR agonists driving receptor internalization, primary screen, cell-based, FAP fluorogen, flow cytometry | Beta-2 adrenergic receptor (Homo sapiens), P07550 | Am2.2-beta2AR cells; reference of the scale not given here | response, % (concentration not given with the values) | actives 0.43% (n = 340,000) | AID 504454, 2011;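 active = response above a set limit, near 3 SD of response in nonfluorescent compounds, cut at about 42% in these data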;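 also: stock transfer was 100 nL into about 11 µL; a reference agonist was the positive control; negative values mostly stem from fluorescent compounds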
Target sequence (P07550 whole entry, looked up): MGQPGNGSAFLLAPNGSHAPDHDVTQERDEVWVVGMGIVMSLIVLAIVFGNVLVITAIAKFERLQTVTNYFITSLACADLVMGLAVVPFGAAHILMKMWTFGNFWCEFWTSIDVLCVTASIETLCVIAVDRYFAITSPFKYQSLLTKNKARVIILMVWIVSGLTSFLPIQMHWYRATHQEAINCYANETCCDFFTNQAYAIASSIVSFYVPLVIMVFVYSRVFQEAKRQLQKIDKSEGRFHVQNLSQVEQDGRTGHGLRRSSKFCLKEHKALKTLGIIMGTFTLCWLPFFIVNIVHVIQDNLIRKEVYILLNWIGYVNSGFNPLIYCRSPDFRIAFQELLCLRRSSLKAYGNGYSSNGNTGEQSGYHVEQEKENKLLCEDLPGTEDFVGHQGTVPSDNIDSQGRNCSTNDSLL
ALR inh = inhibitors of human ALR sulfhydryl oxidase, primary screen, biochemical, H2O2 detection, HRP-luminol luminescence, single point; FAD-linked sulfhydryl oxidase ALR (Homo sapiens), P55789; purified ALR, DTT oxidation; inhibition, % (concentration not given with the values); actives 3.8% (n = 290,000); AID 485317, 2010;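 active = mean and each replicate at 75% or more; inconclusive = only one of the two met; inactive = neither met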;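 also: stock transfer was 7.5 nL into about 7.5 µL; 0% = neutral wells and 100% = wells with inactivated enzyme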
Target sequence (P55789 whole entry, looked up): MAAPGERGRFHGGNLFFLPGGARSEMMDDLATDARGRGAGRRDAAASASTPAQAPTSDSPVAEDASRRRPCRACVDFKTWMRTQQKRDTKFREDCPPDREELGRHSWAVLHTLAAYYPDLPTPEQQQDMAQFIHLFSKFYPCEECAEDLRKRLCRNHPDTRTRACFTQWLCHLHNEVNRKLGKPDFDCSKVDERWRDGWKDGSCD
UCH37 DUB inh = inhibitors of human UCH37 deubiquitinase, primary screen, biochemical, Ub-AMC cleavage, fluorescence; purified proteasome/UCH37; inhibition, % (test concentration not listed); actives 0.33% (n = 330,000); AID 588478, 2011;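 active = mean of two replicates above 20%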;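 also: 0% = compound-free wells with enzyme and 100% = wells lacking proteasome; stock transfer was 100 nL into about 20 µL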
Target sequence (Q9Y5K5 whole entry, looked up): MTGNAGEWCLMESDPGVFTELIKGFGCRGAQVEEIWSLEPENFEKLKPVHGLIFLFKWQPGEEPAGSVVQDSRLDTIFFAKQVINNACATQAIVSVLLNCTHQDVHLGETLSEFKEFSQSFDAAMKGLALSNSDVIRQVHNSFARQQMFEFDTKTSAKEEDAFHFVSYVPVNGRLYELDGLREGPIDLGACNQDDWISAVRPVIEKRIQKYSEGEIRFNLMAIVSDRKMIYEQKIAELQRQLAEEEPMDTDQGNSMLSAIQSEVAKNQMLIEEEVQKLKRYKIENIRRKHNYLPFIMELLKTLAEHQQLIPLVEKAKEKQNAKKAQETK
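Schedule: 30 min plus 25 min, room temperature / Material: human UCH37 within purified proteasomes / Technique: AMC fluorescence intensity at 355/460 nm / Buffer or medium: pH 7.4 Tris-HCl (50 mM) with ovalbumin, ATP-MgCl2, DTT / Controls: wells without proteasome as full block, compound-free enzyme plus substrate as uninhibited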
Ecoli growth = E. coli growth inhibition, primary screen, OD600; OD600 absorbance (test concentration not listed); AID 1053175, 2014; actives 0.21% (n = 330,000); Escherichia coli growth, 23 h; stronger effect = lower value;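 active = OD600 absorbance below the run mean of sample wells minus 3.6 SD, in any replicate, cut at about 0.56 in these data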;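 also: stock transfer was 300 nL into about 60 µL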
rRNA inh HTS = reduced GFP signal of wild-type E. coli, primary screen, bacterial rRNA inhibitor project, GFP/RFP fluorescence, OD600, single point; GFP signal change (wild-type ribosome), % (test concentration not listed); E. coli WT GFP vs humanized-ribosome RFP mutants, 24 h; stronger effect = lower value; DMSO median 0, no signal -100; AID 720706, 2013; actives 1.6% (n = 350,000);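 active = significant combined selectivity score with lowered wild-type GFP, culture density cut under 30%, mutant RFP and density less affected; inactive = any of these conditions unmet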; also: one replicate is shown; some compounds called inactive have numbers as strong as hits
rRNA inh HTS OD600 = recorded beside rRNA inh HTS, whose call it bears; OD600 change, %; measured here: OD600 growth;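 optical density of the mix in the first replicate; 0 = DMSO median and -100 = no signal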
rRNA inh HTS RFP = also measured in rRNA inh HTS; calls as there; RFP signal change, %; measured here: RFP humanized mutant strains;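 first replicate; 0 = DMSO median and -100 = no signal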
An asterisk follows results filed as active; i = inactive; ? = inconclusive; nt = no result given; + = active, no number; & = joins results of further samples. The list is partial, so the mix of outcomes need not match the whole.

Molecule,HNF4A DNA FP,FGF22 binding,Beta2AR agonist,ALR inh,UCH37 DUB inh,Ecoli growth,rRNA inh HTS,rRNA inh HTS OD600,rRNA inh HTS RFP
NS(=O)(=O)c1cccc(NC(=O)COC(=O)Cc2ccc(Cl)cc2)c1,4.8,i,2,-4,4.6,0.73,-4,-2,-0.2
Cc1c(C(=O)OC2CCCCC2)[nH]c2c1C(=O)CC(C)(C)C2,-3.5,nt,-6,8,4.5,0.72,nt,nt,nt
CCCC(=O)Nc1nc(-c2ccc3c(c2)CCN3S(C)(=O)=O)cs1,-3.1,nt,-19,-5,3.0,0.69,nt,nt,nt
O=C(N/N=C/c1cccc2ccccc12)c1ccccc1Cl,-0.5,i,-5,-1,nt,nt,0,-8,4.6
NS(=O)(=O)c1ccc(N=Nc2c(O)c(C(=O)O)cc3ccccc23)cc1,9.2,i,4,-14,11,0.67,6,9,13
O=C(CCc1ccc(S(=O)(=O)N2CCOCC2)cc1)NCCc1ccccn1,3.6,nt,2,-3,2.0,0.71,nt,nt,nt
O=C(N1CCN(c2ccc(F)cc2)CC1)C1(c2cccs2)CCOCC1,6.3,nt,-10,48,3.2,0.64,nt,nt,nt
CC(C)NC(=O)N(C)C[C@H]1Oc2cc(Br)ccc2S(=O)(=O)N([C@H](C)CO)C[C@H]1C,-0.6,i,nt,nt,nt,nt,1&-1,4&4,-1.5&-1.7
CCC1=Nc2cc(C(=O)NCCN3CCOCC3)ccc2Sc2ccc(C)cc21,0.4,i,-8,-9,5.7,0.71,6,1,2.9
COc1cccc(/C=C/C(=O)NNC(=O)c2ccco2)c1OC,-3.4,i,-3,-1,2.1,0.66,4,8,-0.4
Cc1cc(N2C(=O)Cc3ccccc3C2=O)ccc1C(C)C,-7.6,i,14,-2,8.2,0.64,15,16,0.7
Cc1cc2c(c(C)c1CCO)C(=O)[C@H](C)C2,-0.1,i,4,nt,0.8,0.69,nt,nt,nt
COc1ccc(N2CCN(S(=O)(=O)CCNC(=O)c3ccc4c(c3)OCO4)CC2)cc1,-2.0,i,12,1,0.4,0.69,7,11,-0.6
COC(=O)c1cnc(Oc2ccc(NC(=O)NC(=O)c3c(F)cccc3F)cc2)cc1C(F)(F)F,-13,i,0,7,3.4,0.69,6,8,-0.3
O=[N+]([O-])c1cc2oc3c(c2c(C=NCc2ccccc2)c1O)CCCC3,33,nt,-36,-4,6.4,0.62,nt,nt,nt
CC1=NN(c2ccc([N+](=O)[O-])cc2)C(=O)C1,1.1,nt,1,nt,11,0.64,1,12,-0.5
O=C(N/N=C/C1CCCCC1)c1ccccc1-n1cccc1,0.8,i,1,nt,nt,nt,9,6,-2.7
O=C(CSc1nccn1Cc1ccc(F)cc1)Nc1ccc(F)cc1F,2.8,i,-6,2,1.7,0.67,-29,-26,-4.8
O=C1CCCN1C1CCN(Cc2ccccc2)S(=O)(=O)N1 (stereo unspecified),0.4,i,nt,nt,nt,nt,12,10,-1.2
Cc1ccc(-c2cc(C)nc3nc(N)nn23)cc1,-2.1,nt,-8,7,-109,0.64,nt,nt,nt
COc1ccc(NC(=O)c2sc(-c3ccccc3)nc2C)c(OC)c1,-0.5,i,4,nt,-11,0.7,3,11,-2.6
Cc1ccc(Cl)cc1N1CCN(S(=O)(=O)c2ccc3c(c2)oc(=O)n3C)CC1,0.1,nt,-3,-14,1.1,0.74,nt,nt,nt
CC1(C)CN(c2ccccc2)N(C(=O)c2ccc(F)cc2)C1=O,6.0,i,-5,100*,4.7,0.74,nt,nt,nt
Cc1cccc(N2CCN(C(=O)c3cn4ccccc4n3)CC2C)c1 (stereo unspecified),2.4,i,-10,83*,0.0,0.71,-9,-16,-1.6
O=C(Nc1ccc2c(c1)OCO2)C1(S(=O)(=O)c2ccc(Cl)cc2)CC1,0.7,nt,5,-9,5.0,0.67,2,6,1.7
O=[N+]([O-])c1cccc(/C=N/Nc2ccccn2)c1,0.4,i,-2,-3,nt,nt,-1,2,-2.6
Cc1ccc(-c2csc3ncnc(Sc4nnc(CN5CCCCCC5=O)o4)c23)cc1,10,nt,42*,21,3.5,0.69,nt,nt,nt
CCOc1ccccc1N1CCN(C(=O)c2cc(C)oc2C)CC1,3.9,i,1,30,0.5,0.69,-9,-12,-0.5
O=C(Nc1ccccc1)N1CCN(c2nc(-c3ccccc3)ns2)CC1,-0.4,i,1,-4,3.7,0.67,-30*,-18*,0.0*
CC(C)NC(=O)c1ccc2c(=O)n(C3CCCC3)c(=S)[nH]c2c1,-0.8,nt,3,-10,2.0,0.73,nt,nt,nt
CCCCN1C(=O)c2ccc(C(=O)OCC(=O)NCCc3ccc(S(N)(=O)=O)cc3)cc2C1=O,-0.4,i,-1,-2,0.0,0.68,-3,-1,2.9
O=C(NCCc1ccccc1)c1n[nH]c2ccccc12,-0.3,i,-3,?,4.3,0.68,5,1,5.1
CC(Oc1ccc(Br)cc1)C(=O)Nc1nc(-c2ccccn2)cs1 (stereo unspecified),1.9,i,8,0,nt,nt,-68,-81,-23
CC1=C(C(=O)OCc2ccccc2)C(c2cccc3ccccc23)NC(=O)N1CCCC(=O)O (stereo unspecified),1.3,i,-2,-4,0.1,nt,9,5,2.2
CS(=O)(=O)N(CC(N)=O)c1ccc2c(c1)OCO2,0.1,nt,2,-14,-2.5,0.77,nt,nt,nt
Fc1cccc(CCN2CCN=C2Nc2ccccc2)c1,2.7,i,2,nt,-0.1,0.7,1,7,-3.4
COc1ccc(C(=O)N2CCCC(Nc3ccc(C)c(C)c3)C2)c(OC)n1 (stereo unspecified),8.2,i,-1,83*,5.4,0.63,-2,-3,-1.3
Cc1cc(NC(=O)CSc2nnc(C)n2-c2ccccc2C)no1,-0.6,i,4,-15,-1.1,0.64,19,16,1.5
O=C(CCN1CCN(Cc2ccccc2)CC1)NNC(=O)Nc1cccc(Cl)c1,2.6,i,-3,4,1.9,0.65,nt,nt,nt
NC(=O)c1nn(CC(=O)Nc2cccc(S(=O)(=O)N3CCCC3)c2)c(=O)c2ccccc12,6.2,i,-2,-6,4.1,0.65,3,4,-0.6
CC(=O)N1CCCc2cc(S(=O)(=O)NC(C(=O)NC3CCCCC3)C(C)C)ccc21 (stereo unspecified),1.2,i,-2,-1,2.3,0.64,20,13,-0.3
CC12CCC(C(=O)NNC(=O)c3ccccc3)(OC1=O)C2(C)C (stereo unspecified),-5.0,i,-9,-2,5.2,0.72,9,5,1.5
CCN(c1cccc(C)c1)C1C(=O)c2ccccc2N1C(C)=O (stereo unspecified),0.2,i,-1,nt,-11,0.69,6,5,1.4
CN(CCc1ccccc1)C(=O)c1cccc(NC(=O)Cc2cccc(NC(=O)C3CCCN(C(=O)CCc4ccccc4)C3)c2)c1 (stereo unspecified),3.3,i,2,nt,4.6,0.72,5,-2,-4.6
COc1ccc(C(C)=O)cc1CSc1nc2cc(Cl)ccc2o1,4.5,nt,-3,-2,-1.6,0.73,nt,nt,nt
Cc1cc(Br)c2c(c1)/C(=C/C(=O)c1cccs1)C(=O)N2,1.7,nt,3,17,3.2,0.64,8,3,4.5
Cc1cc(C)c(S(=O)(=O)n2ccc3ccccc32)c(C)c1,1.5,nt,8,0,0.9,0.68,nt,nt,nt
Cc1cc2nc(C3CCN(C(=S)NCC(C)C)CC3)[nH]c2cc1C,-0.6,+,-2,-9,5.6,0.68,-15,-13,-6.6

Molecules from the list above that contain fluorine (five):
Molecule,HNF4A DNA FP,FGF22 binding,Beta2AR agonist,ALR inh,UCH37 DUB inh,Ecoli growth,rRNA inh HTS,rRNA inh HTS OD600,rRNA inh HTS RFP
O=C(N1CCN(c2ccc(F)cc2)CC1)C1(c2cccs2)CCOCC1,6.3,nt,-10,48,3.2,0.64,nt,nt,nt
COC(=O)c1cnc(Oc2ccc(NC(=O)NC(=O)c3c(F)cccc3F)cc2)cc1C(F)(F)F,-13,i,0,7,3.4,0.69,6,8,-0.3
O=C(CSc1nccn1Cc1ccc(F)cc1)Nc1ccc(F)cc1F,2.8,i,-6,2,1.7,0.67,-29,-26,-4.8
CC1(C)CN(c2ccccc2)N(C(=O)c2ccc(F)cc2)C1=O,6.0,i,-5,100*,4.7,0.74,nt,nt,nt
Fc1cccc(CCN2CCN=C2Nc2ccccc2)c1,2.7,i,2,nt,-0.1,0.7,1,7,-3.4

(more compounds)
Molecule,HNF4A DNA FP,FGF22 binding,Beta2AR agonist,ALR inh,UCH37 DUB inh,Ecoli growth,rRNA inh HTS,rRNA inh HTS OD600,rRNA inh HTS RFP
Cc1c(C(=N)C(C#N)C#N)c(=N)oc2c1ccc1ccccc12,6.3,i,4,-16,nt,nt,-8,-5,7.0
O=C(NC1CCC(O)CC1)c1ccc(-c2ccc(Cl)cc2)o1 (stereo unspecified),1.2,i,11,11,-2.3,0.72,-16,-15,1.0
CC(=O)O/N=C/c1c(C)c(C=O)n2ccccc12,-2.6,i,0,2,nt,nt,2,-1,1.6
COc1ccc(S(=O)(=O)NCCc2c[nH]c3ccc(C)cc23)cc1,-2.2,i,4,31,6.7,0.68,-6,-12,-0.3
C=CCn1c(COc2ccccc2C)nnc1SCC(=O)O,1.1,nt,-10,nt,-1.2,0.7,nt,nt,nt
COc1cccc(NC(=O)N2CCc3nc(Nc4cc(Cl)cc(Cl)c4)ncc3C2)c1,10.0,i,nt,nt,nt,nt,-11,-33,20
Cc1cc(C)nc(N/N=C/c2cc(Br)ccc2O)n1,-0.1,i,2,32,nt,nt,-37*,-12*,-11*
COc1ccccc1-c1nnc(-c2ccc(N3CCOCC3)cc2)o1,-4.6,nt,7,3,-160,0.72,nt,nt,nt
CCCCN1C(=N)N([C@@H](CCC)CN2CCC[C@H]2CN2C(N)=NC[C@@H]2Cc2ccccc2)C[C@H]1Cc1ccccc1,2.5,i,-7,8,2.8,nt,-51,-78,-20
COc1nc(N(C#N)CC(N)=O)nc(N2CCCC2)n1,2.4,nt,-15,-5,-3.3,0.67,nt,nt,nt
CCC(=O)Nc1c(-c2ccc(OC)cc2)c(=O)c2ccccc2n1C,1.3,nt,-4,nt,-89,0.69,nt,nt,nt
COc1ccc(/C=C/C(=O)OCC(=O)N2CCCC2)c(OC)c1,-5.0,i,-1,0,-1.8,0.67,-4,-3,-1.1
CCN1C(=O)C2C(c3cccc(F)c3)NC(CC)(C(=O)OC)C2C1=O (stereo unspecified),1.7,nt,2,-13,2.1,0.67,nt,nt,nt
COc1ccccc1N(CN1CCCC1=O)C(=O)c1ccccc1F,0.9,nt,8,nt,-0.3,0.7,nt,nt,nt
O=C(c1ccccc1NS(=O)(=O)c1cccs1)N1CCOCC1,-3.2,nt,6,-9,1.8,0.71,nt,nt,nt
